# YopH PTP inh: YopH tyrosine phosphatase inhibitors, primary screen, biochemical, fluorescence Ex485/Em525 | inhibition, %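 (about 10 µM by stock and volumes)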 | hit rate 0.16% among 140,000;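 active means inhibition of 50% or more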;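 further: controls were vehicle for no effect and minimum signal wells for full effect; inactives centre near -20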
# Mtb bLac sens: beta-lactam sensitization of Mtb H37Rv, H37Rv; M. tuberculosis H37Rv growth with meropenem, percent inhibition; hits of this screen are not shown here; hit rate 0.27% among 330,000; inhibition, % at 25 µM;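 active means about 74% or more and at least 40 points above the plate without the antibiotic, then above 30% in a dose series; inconclusive means first-round hits that could not be retested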;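 further: growth measured after seven days incubation then overnight dye step; 0% = bacteria only wells and 100% = bacteria with antibiotic; twin plates without the antibiotic show which effects depend on it; some results filed as inactive read as strong as hits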
# Mtb growth: M. tuberculosis H37Rv growth inhibitors, H37Rv strain (AID 1626). M. tuberculosis H37Rv growth inhibition; higher % means a stronger effect. inhibition, % at 10 µM, or IC50 in µM where a hit was titrated. hit rate 0.95% among 220,000;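 active means confirmed in a dose series; inconclusive means inhibition above 80% but not taken into the dose series; inactive means below 80% or under 30% at every dose of the series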;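 further: bacteria incubated seven days before Alamar blue readout; 0% = bacteria only wells and 100% = bacteria with antibiotic wells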
# RecA splice inh: Mtb RecA intein splicing inhibitors, primary screen, biochemical, fluorescence, HTS; Protein RecA (Mycobacterium tuberculosis (strain ATCC 25618 / H37Rv)), P9WHJ3; cell-free RecA intein splicing; inhibition, %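 (about 9 µM by stock and volumes)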; hit rate 0.75% among 290,000; AID 2221, 2009; in the data active means inhibition above about 30%; inconclusive means no clear call, values can overlap the other calls;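 further: 0% = vehicle wells and 100% = reference inhibitor control wells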
# Target sequence (P9WHJ3 whole entry, looked up, canonical isoform): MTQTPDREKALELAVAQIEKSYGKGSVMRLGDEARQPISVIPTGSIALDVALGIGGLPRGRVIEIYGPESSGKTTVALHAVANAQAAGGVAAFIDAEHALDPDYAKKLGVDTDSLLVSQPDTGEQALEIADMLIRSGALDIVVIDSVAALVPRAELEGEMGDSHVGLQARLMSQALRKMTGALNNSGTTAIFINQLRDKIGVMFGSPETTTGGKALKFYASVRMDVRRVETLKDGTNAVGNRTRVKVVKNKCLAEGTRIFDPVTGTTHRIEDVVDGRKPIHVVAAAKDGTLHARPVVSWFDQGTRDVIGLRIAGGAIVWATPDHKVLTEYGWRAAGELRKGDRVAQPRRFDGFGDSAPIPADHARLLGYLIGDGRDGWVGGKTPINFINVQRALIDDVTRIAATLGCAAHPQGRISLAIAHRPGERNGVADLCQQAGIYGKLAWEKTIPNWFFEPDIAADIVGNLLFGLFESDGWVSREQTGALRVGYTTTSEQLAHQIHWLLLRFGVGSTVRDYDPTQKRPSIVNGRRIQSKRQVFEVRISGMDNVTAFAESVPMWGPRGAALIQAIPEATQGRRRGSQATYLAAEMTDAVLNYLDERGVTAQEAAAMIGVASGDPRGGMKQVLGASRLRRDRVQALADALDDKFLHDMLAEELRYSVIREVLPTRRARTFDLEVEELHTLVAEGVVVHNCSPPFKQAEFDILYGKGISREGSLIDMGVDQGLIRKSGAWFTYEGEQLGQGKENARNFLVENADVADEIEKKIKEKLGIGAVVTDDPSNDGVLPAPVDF
# Arbovirus anti: antivirals against arbovirus infection, primary screen, cell-based, full library, 10K replicate subset | arbovirus infection cell-based antiviral screen | inhibition, % at 10 µM | hit rate 0.37% among 200,000;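 active means inhibition from about 30%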;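 further: bluetongue infection of BSR cells; cell survival read as ATP light after 72 h; 0% = infected wells without compound and 100% = uninfected wells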
# Arbovirus anti repeat: second read-out of Arbovirus anti, no call of its own (marks repeat the call); inhibition, %; measured here: 10K subset replicate screen; many hits read low in the repeat;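 first of two repeat runs on a subset; 0% = infected and 100% = uninfected wells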
# The depositor's hits bear a star; ? = inconclusive; nt = not tested or not shown. The list is partial. The share of hits here may be higher or lower than overall.
SMILES,YopH PTP inh,Mtb bLac sens,Mtb growth,RecA splice inh,Arbovirus anti,others
O=C(NCc1ccco1)c1ccc(COc2ccc(Cl)cc2)cc1,-10.2,42.7,15.4%,0.3,3.0,
CCNC(=O)NC1(C(=O)Nc2ccc3c(c2)CCC3)CCCCC1,-7.2,-5.9,-9.8%,0.6,9.2,
Cc1cc(C)c(C#N)c(SCc2cc3c(cc2Cl)OCO3)n1,26.3,4.4,-10.6%,-0.2,-8.1,
CNC(=O)/C(C#N)=C1\SC(Cc2ccc(F)cc2)C(=O)N1c1ccccc1C (stereo unspecified),nt,-1.2,-3.8%,2.0,nt,
Cc1ccc(C)c(CN2CCSCC2)c1,nt,-6.8,nt,-1.6,nt,
Cc1cc(C)cc(NC(=O)c2ccc(CNc3c(N4CCOCC4)c(=O)c3=O)cc2)c1,-32.4,-2.7,12.3%,1.3,-14.9,
O=C(NCCCc1ccccc1)C1CCN(c2nnc(-n3cccc3)s2)CC1,-15.6,0.7,18.8%,3.6,-10.6,Arbovirus anti repeat=-5.2
CCn1nc(C)c(/C=N\NC(=O)c2cccc(OC)c2)c1C,-23.2,-5.4,6.5%,0.0,1.3,
O=C(CC(Nc1ccc(Cl)cc1Cl)C(=O)O)c1ccccc1 (stereo unspecified),nt,-1.6,-1.9%,-3.0,nt,
COC(=O)CN(c1cc(Cl)ccc1OC)S(=O)(=O)c1ccc(OC)c(OC)c1,-17.6,2.6,-4.1%,-5.7,8.1,
COC(=O)c1cc(C(=O)c2cccc(Cl)c2Cl)cn1C,-36.8,-1.7,-0.5%,6.3,-0.2,
O=C1CN(C(=O)CNCc2ccccc2)c2ccccc2N1,nt,3.4,-5.8%,-1.2,nt,
CCOc1ccc(NC(=O)C2CCN(S(=O)(=O)c3ccc4c(c3)N(C(C)=O)CCO4)CC2)cc1,nt,6.3,nt,2.1,nt,
COc1ccccc1OCCNC(=O)C1CC(=O)N(c2cccc(SC)c2)C1 (stereo unspecified),nt,-11.4,nt,2.1,nt,
CC(C)(C)c1ccc(NC(=O)CC2(C(F)(F)F)OCCO2)cc1,-20.2,12.3,-6.7%,1.5,-8.7,
CCc1ccc(S(=O)(=O)NCCc2cn3ccc(C)cc3n2)s1,nt,8.0,-5.5%,0.0,9.3,
C=CCn1c(=O)c2ccccc2n2c(SCc3c(C(=O)OCC)oc4ccccc34)nnc12,nt,-16.9,-2.0%,-3.2,nt,
CCOC(=O)c1ccccc1NC(=O)CN(c1ccccc1)S(=O)(=O)N(C)C,44.9,2.7,-12.8%,4.3,-3.8,
Cc1nc2sc(-c3ccccc3)cc2c(=O)n1-n1cccc1,-28.4,-5.7,-5.6%,-2.5,1.1,
Cc1sc(NC(=O)Cc2ccc3c(c2)OCO3)nc1-c1ccc2c(c1)CCN2C(=O)c1cccc(F)c1,-26.1,89.6,44.0%,-1.1,-8.8,
CCOC(=O)/C(C#N)=C/Nc1ccccc1OC(F)(F)F,nt,3.7,11.1%,-0.5,nt,
CC1=C(C(=O)OCc2ccccc2)C(c2ccccn2)c2c(n(C)c(=O)n(C)c2=O)N1 (stereo unspecified),-1.6,-2.3,-0.1%,-0.3,-4.4,
Cc1c(C)n(CC(O)CN2CCN(C)CC2)c2ccccc12 (stereo unspecified),nt,-2.5,nt,-1.6,nt,
O=C(NNC(=S)Nc1ccc(Br)cc1)c1ccccc1,nt,12.1,nt,2.7,nt,
COc1cc2c(cc1OC)CN(C1CC(=O)N(c3c(C)cccc3C)C1=O)CC2 (stereo unspecified),nt,-4.7,5.3%,-3.0,-16.4,
Cc1c(NC(=O)COc2ncnc3c(Cl)cc(Cl)cc23)c(=O)n(-c2ccccc2)n1C,-20.2,-11.1,-11.2%,-3.4,5.9,
O=C(CCCCn1c(=O)[nH]c2ccccc2c1=O)N1CCN(c2ncccn2)CC1,-23.7,-5.8,nt,0.4,8.2,Arbovirus anti repeat=5.5
CC(=O)c1c(C)[nH]c(C(=O)Nc2nc(-c3ccc(-c4ccccc4)cc3)cs2)c1C,-15.6,4.9,0.4%,0.7,5.1,
COC(=O)C1=C2SCC(=O)N2C(N)=C(C#N)C1,nt,-3.3,-1.3%,-5.5,nt,
CCOP(=O)(OCC)/C(C#N)=C/c1ccc([N+](=O)[O-])cc1,nt,-7.2,10.1%,6.3,nt,
CC(=O)c1ccc(N2CCC(c3cc(-c4ccc(Cl)cc4Cl)n[nH]3)CC2)c([N+](=O)[O-])c1,-28.6,96.6,4.7%,1.6,-31.9,
COc1ccc(CSc2nc3ccccc3c(=O)n2CCCN2CCOCC2)cc1F,nt,79.6,15.4%,1.0,16.0,
Cn1cnnc1SCC(=O)Nc1sccc1C#N,1.5,-9.7,-1.8%,0.1,1.4,
Nc1cc(N)nc(SCc2cc([N+](=O)[O-])cc3c2OCOC3)n1,nt,-9.1,nt,-2.4,nt,
CC(C)Cc1ccc(/C=C/C(=O)N2CCOCC2)cc1,nt,-3.2,6.5%,0.7,-0.3,
CC(=O)N1CCN(c2ncnc3sc(-c4ccccc4)cc23)CC1,nt,-0.3,-2.1%,-1.2,-0.5,
Cc1ccc(C(=O)Nc2nc3nc(-c4ccccc4)cc(=O)n3[nH]2)cc1,-10.3,96.5,44.7%,3.5,10.6,
CC(C)c1cc(-c2cc(-c3ccc(Cl)cc3)on2)nc(NC2CCCC2)n1,nt,25.5,8.8%,-1.0,nt,
NC(=S)N/N=C/c1cccc(Br)c1,nt,91.6,?,-0.2,-9.2,
O=C(CSc1n[nH]c(=O)[nH]c1=O)N1CCCCCC1,nt,0.3,-9.8%,1.0,nt,
N#Cc1nc(-c2ccccc2F)oc1NCc1cccc2c1OCO2,3.1,3.1,8.1%,5.7,-1.2,
O=C(O)CCC(=O)N(Cc1ccccc1)Cc1ccccc1,nt,-3.0,nt,-1.0,nt,
CC1(C)CC(=O)c2c(O)cc(OCC(=O)Nc3ccc(CCO)cc3)cc2O1,nt,-2.8,nt,5.5,nt,
COc1ccc(S(=O)(=O)NCCc2cn3nc(C)c(C)nc3n2)cc1,nt,-5.4,nt,-126.6,nt,
O=S(=O)(c1ccccc1)N1CCC(N2CCCCCC2)CC1,-17.0,-17.6,-7.0%,-5.9,-10.0,
O=C(c1cccc(Cl)c1)C1CCCN(Cc2cccc3cnccc23)C1 (stereo unspecified),nt,17.7,13.5%,nt,6.7,
CCOc1cc(C(=S)N2CCCCC2)ccc1OS(=O)(=O)c1ccc(Br)cc1,-21.8,13.7,1.2%,4.0,-3.5,
Cn1c(=O)c2c(nc(Br)n2CC(=O)c2cccs2)n(C)c1=O,-12.7,-5.2,-4.3%,-2.0,2.4,
CCn1c(=O)c(=O)n(CC)c2cc(S(=O)(=O)Nc3ccc(C)cc3)ccc21,nt,-0.8,6.2%,0.8,nt,
O=C(O)C1C2C=CC3(CN(C/C=C/c4ccccc4)C(=O)C13)O2 (stereo unspecified),-57.0,1.5,3.9%,0.4,0.8,Arbovirus anti repeat=1.1
COC(=O)CCC(NS(=O)(=O)OCC(Cl)(Cl)Cl)c1ccccc1 (stereo unspecified),nt,-2.9,nt,-0.1,nt,
Cc1ccc(CNC(=O)C2CCN(S(=O)(=O)c3ccc4c(c3)CC(C)N4C(=O)C3CC3)CC2)cc1 (stereo unspecified),nt,-1.2,nt,-0.8,nt,
CCN(CC)c1ccc(C2NC(=O)NC(C)=C2C(=O)Nc2ccccc2)cc1 (stereo unspecified),-32.6,5.1,-2.9%,-2.6,11.4,
COc1cccc(NC(=O)CN(C)C(=O)c2ccccc2OCC(=O)Nc2cccc(C(F)(F)F)c2)c1,nt,-7.4,nt,0.4,nt,
Cc1cc(C)n(CC(=O)N/N=C/c2ccccn2)n1,-13.4,7.3,-3.1%,-4.0,3.2,
CN1CCN(NC(=O)c2cc(Br)ccc2Cl)CC1,nt,1.5,0.1%,-1.7,-0.1,
O=C(CN1C(=O)/C(=C/c2ccccc2)SC1=S)Nc1cccnc1,nt,8.0,-6.2%,-1.1,3.5,
COc1ccc2c(c1)SC(C)CC2=O (stereo unspecified),-18.3,-5.6,-8.1%,-1.2,-1.3,
Cc1cc(C)nc(SCC(=O)Nn2cnnc2)n1,-15.7,2.2,nt,1.8,3.9,
O=C(CCc1nnc2ccc(N3CCCC3)nn12)Nc1ccc(F)c(F)c1,nt,2.4,nt,0.8,nt,

# Sorted by formula weight (highest first): 15 of the compounds above
SMILES,YopH PTP inh,Mtb bLac sens,Mtb growth,RecA splice inh,Arbovirus anti,others
Cc1ccc(CNC(=O)C2CCN(S(=O)(=O)c3ccc4c(c3)CC(C)N4C(=O)C3CC3)CC2)cc1 (stereo unspecified),nt,-1.2,nt,-0.8,nt,
CCOc1cc(C(=S)N2CCCCC2)ccc1OS(=O)(=O)c1ccc(Br)cc1,-21.8,13.7,1.2%,4.0,-3.5,
COC(=O)CCC(NS(=O)(=O)OCC(Cl)(Cl)Cl)c1ccccc1 (stereo unspecified),nt,-2.9,nt,-0.1,nt,
CCn1c(=O)c(=O)n(CC)c2cc(S(=O)(=O)Nc3ccc(C)cc3)ccc21,nt,-0.8,6.2%,0.8,nt,
CC1(C)CC(=O)c2c(O)cc(OCC(=O)Nc3ccc(CCO)cc3)cc2O1,nt,-2.8,nt,5.5,nt,
Cn1c(=O)c2c(nc(Br)n2CC(=O)c2cccs2)n(C)c1=O,-12.7,-5.2,-4.3%,-2.0,2.4,
CCN(CC)c1ccc(C2NC(=O)NC(C)=C2C(=O)Nc2ccccc2)cc1 (stereo unspecified),-32.6,5.1,-2.9%,-2.6,11.4,
O=C(CCc1nnc2ccc(N3CCCC3)nn12)Nc1ccc(F)c(F)c1,nt,2.4,nt,0.8,nt,
O=C(c1cccc(Cl)c1)C1CCCN(Cc2cccc3cnccc23)C1 (stereo unspecified),nt,17.7,13.5%,nt,6.7,
COc1ccc(S(=O)(=O)NCCc2cn3nc(C)c(C)nc3n2)cc1,nt,-5.4,nt,-126.6,nt,
O=C(CN1C(=O)/C(=C/c2ccccc2)SC1=S)Nc1cccnc1,nt,8.0,-6.2%,-1.1,3.5,
O=S(=O)(c1ccccc1)N1CCC(N2CCCCCC2)CC1,-17.0,-17.6,-7.0%,-5.9,-10.0,
Cc1cc(C)nc(SCC(=O)Nn2cnnc2)n1,-15.7,2.2,nt,1.8,3.9,
Cc1cc(C)n(CC(=O)N/N=C/c2ccccn2)n1,-13.4,7.3,-3.1%,-4.0,3.2,
COc1ccc2c(c1)SC(C)CC2=O (stereo unspecified),-18.3,-5.6,-8.1%,-1.2,-1.3,

# Other entries
SMILES,YopH PTP inh,Mtb bLac sens,Mtb growth,RecA splice inh,Arbovirus anti,others
COc1cc(SC)ccc1C(=O)Nc1ccc2c(c1)OCCO2,-30.3,80.9,-9.5%,7.2,-0.6,Arbovirus anti repeat=15.0
COc1ccc(OC)c(NC(=O)CCCSc2ccccc2)c1,nt,-4.6,nt,2.5,nt,
OCC[C@@H]1C[C@H](O)[C@@H](O)[C@@]2(OCCc3ccccc32)O1,nt,-4.9,nt,-4.4,nt,
O=C(COC(=O)c1cccc2c1C(=O)c1ccccc1C2=O)NC1CCCCC1,-13.5,36.5,14.3%,1.5,-18.5,
OCCN1CCN(CCOc2cccc(Cl)c2)CC1,-37.2,-1.2,-5.1%,2.3,-1.6,
COc1ccc(NC(=O)c2ccc3nc[nH]c3c2)c(OC)c1,nt,-4.0,-4.0%,-1.7,-1.3,
N#C/C(=C/c1ccc(N2CCCCC2)o1)C(=O)NCCc1c[nH]c2ccccc12,-23.6,-0.5,41µM*,-0.4,-12.2,
Cc1cccc(-n2cc(-c3ccccc3)c3c(=O)[nH]cnc32)c1,-22.0,51.8,20.2%,5.7,-24.6,
COc1ccc(CCN(C)Cc2c(O)ccc3ccccc23)cc1OC,nt,3.1,nt,-11.2,nt,
O=C(Nc1nc(-c2ccccc2)cs1)c1ccc(=O)[nH]c1,nt,6.0,2.6%,-1.5,37.9*,
Cc1cc(C(F)(F)F)n2nc(-c3sccc3-n3cccc3)cc2n1,0.8,-14.8,nt,0.4,-4.6,
O=C(O)c1cccc(NC(=O)c2cccc(S(=O)(=O)N3CCCCC3)c2)c1,-31.2,2.6,-5.4%,0.2,3.9,
CCNCc1cc(Br)c(OCC(=O)Nc2ccccc2)c(OC)c1,-28.8,-32.4,-5.5%,0.0,9.7,
COCCCn1c(=O)/c(=C\c2ccccc2OC(F)F)s/c1=C(/C#N)C(N)=O,nt,-5.3,-5.0%,-13.1,8.4,
CC(=O)C1=C(C)NC(=O)CC1c1ccc(Br)cc1 (stereo unspecified),nt,-3.2,-3.2%,-0.6,8.5,
